gsp agonist: agonists of gsp mutant (McCune-Albright syndrome). AID 624287. gsp mutant cells, cAMP HTRF, 30 min; control for the full effect not named in the record. hit rate 0.13% among 340,000. Potency, µM (doses to about 76.9 µM), without a hit: at the top dose activation (cAMP increase), most hits filed as activators; active = well fitted activation curve with a large enough effect; inconclusive = small, poorly fitted or top-dose-only effect, or another doubt; inactive = no such curve, though single readings can be large or run the other way; cell line not stated here;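 further: phosphodiesterase inhibitor Ro 20-1724 added with compounds to block cAMP breakdown; potency means the concentration at half of the fitted maximal effect; nearly all actives have a fitted effect of over 60% in size; about a fifth of the inactives were tested at one dose only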
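Cells stably selected in G418 were plated at 2000/well, grown 16-24 hr, then given compounds in DMSO with the PDE inhibitor […] (300 uM solution added) for 30 min at 37C; cAMP was read by HTRF.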
TRPV1 potentiator: potentiators of human vanilloid receptor 1 (TRPV1). Q8NER1. TRPV1-expressing cells, Fluo-8 calcium influx, capsaicin EC20 potentiation; host cell line not named in the record; control for the full effect not named in the record. potentiation, % at 8.33 µM. hit rate 0.02% among 320,000. AID 540277; active means potentiation above 80%; inconclusive means 30% to 80%; inactive means below 30%; further: 0% is about no effect
Target sequence (Q8NER1 whole entry, looked up): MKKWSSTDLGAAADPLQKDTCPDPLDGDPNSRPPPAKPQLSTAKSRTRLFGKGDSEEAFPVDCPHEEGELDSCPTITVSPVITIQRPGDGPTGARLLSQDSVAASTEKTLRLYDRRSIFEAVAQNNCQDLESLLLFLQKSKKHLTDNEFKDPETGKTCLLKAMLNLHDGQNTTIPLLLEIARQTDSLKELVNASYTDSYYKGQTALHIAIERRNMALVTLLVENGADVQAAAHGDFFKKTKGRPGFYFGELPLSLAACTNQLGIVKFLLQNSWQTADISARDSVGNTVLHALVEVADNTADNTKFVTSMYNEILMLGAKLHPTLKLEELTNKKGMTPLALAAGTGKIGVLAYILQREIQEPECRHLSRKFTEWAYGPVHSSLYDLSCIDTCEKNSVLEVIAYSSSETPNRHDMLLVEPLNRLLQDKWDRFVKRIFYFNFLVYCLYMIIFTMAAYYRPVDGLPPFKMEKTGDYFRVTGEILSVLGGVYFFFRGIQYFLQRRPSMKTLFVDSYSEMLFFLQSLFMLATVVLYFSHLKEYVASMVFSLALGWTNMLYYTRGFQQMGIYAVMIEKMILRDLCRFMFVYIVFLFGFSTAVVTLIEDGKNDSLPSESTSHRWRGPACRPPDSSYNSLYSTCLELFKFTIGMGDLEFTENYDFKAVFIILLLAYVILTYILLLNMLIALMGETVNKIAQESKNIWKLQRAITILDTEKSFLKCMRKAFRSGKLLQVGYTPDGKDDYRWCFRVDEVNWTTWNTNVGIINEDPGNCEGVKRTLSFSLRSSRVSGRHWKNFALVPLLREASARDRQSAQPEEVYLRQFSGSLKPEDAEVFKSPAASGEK
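TRPV1-expressing cells were cultured overnight at 35.5C and loaded with Fluo-8 calcium dye for 40 to 90 min at room temperature. After a 10 s baseline, compound was added and calcium influx was read kinetically for 3 min (ex 480/em 520 nm).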
gsp antag: gsp mutant antagonism; gsp-mutant cells, cAMP HTRF, 30 min; control for the full effect not named in the record; hit rate 0.4% among 340,000; AID 624288; Potency, µM (top dose mostly 76.9 µM), for the others: at the top dose activity change, negative = inhibition, hits mostly inhibitors; active = falling curve of any shape with a large fitted effect; inconclusive = falling curve, mostly with a smaller effect; inactive = flat or rising curve; cell line not stated here;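 further: intracellular cAMP measured with PDE inhibitor Ro 20-1724 present during compound exposure; potency means the concentration at half of the fitted maximal effect; on the % scale 0 is the no-effect control and ±100 the full control effect; nearly all actives have a fitted effect of over 65% in size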
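Cells, 2000/well, grown 16–24 h in DMEM 10% FBS with 0.5 mg/ml G418, then compounds plus […] (300 uM addition stock), 30 min at 37C. cAMP read by HTRF (cAMP-d2 and anti-cAMP antibody-K in lysis buffer) after 30 min RT.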
ClpP mod: qHTS Assay for Activators of ClpP. Potency, µM (titrated, usually from 57.5 µM), for inactives: at the top dose activity change, negative = active. purified B. subtilis ClpP, FRET peptide cleavage, 20 min. hit rate 1.9% among 340,000. ATP-dependent Clp protease proteolytic subunit (Bacillus subtilis (strain 168)), P80244; active = well fitted falling curve with a large enough effect; inconclusive = small, poorly fitted or top-dose-only effect; inactive = no such curve, though single readings can be large or run the other way; further: potency means the concentration at half of the fitted maximal effect; the source files actives as falling curves though it sought activators and does not explain the sign; nearly all actives have a fitted effect of over 65% in size; many hits overshoot -100%
Target sequence (P80244 whole entry, looked up): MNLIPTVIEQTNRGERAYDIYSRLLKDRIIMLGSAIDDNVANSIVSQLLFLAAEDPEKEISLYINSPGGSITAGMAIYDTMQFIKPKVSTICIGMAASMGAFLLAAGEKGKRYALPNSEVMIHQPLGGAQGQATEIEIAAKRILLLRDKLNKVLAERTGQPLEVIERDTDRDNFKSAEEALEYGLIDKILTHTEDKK
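Purified B. subtilis ClpP, 10 microg/mL final in Tris/HCl pH8 with KCl, BSA, glycerol and Tween-20, cleaved an Abz/nitrotyrosine-quenched decapeptide. Fluorescence (ex 320, em 430) was read at 0 and 20 min at room temperature. Delta was normalized to 5.8 microM ADEP and DMSO/no-enzyme controls.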
CtBP-E1A inh: CtBP/E1A binding inhibition. hit rate 0.49% among 340,000. activity change, % (no concentration beside the values). AlphaScreen GST-E1A/His-CtBP binding, 1536-well; hits give low values; control for the full effect not named in the record; in the data active means activity change below about -65%; inconclusive means about -30% to -65%; inactive means above about -30%; further: on the % scale 0 is the no-effect control and ±100 the full control effect; compound concentration not given in the record
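Homogeneous bead-based format: GST-tagged E1A captured on glutathione donor beads, His-tagged CtBP on nickel acceptor beads; compounds precede bead addition by 2 h at 37 °C.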
Sfp inh: Sfp phosphopantetheinyl transferase inhibition. Biochemical Sfp PPTase activity, qHTS. Potency, µM, for inactives: max response, negative = inhibition, most hits filed as inhibitors. hit rate 3.5% among 310,000; active means well fitted inhibition curve with a large enough effect; inconclusive means small, poorly fitted or top-dose-only effect, or another doubt; inactive means no such curve, though single readings can be large or run the other way;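 further: the enzyme is Sfp with the accession as filed and its product quenches rhodamine fluorescence; potency means the concentration at half of the fitted maximal effect; 0% = enzyme reaction without inhibitor and -100% = no enzyme wells; top concentration of the series not given in the record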
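After 15 min at room temperature with compound, 15 nM Sfp received 5 uM rhodamine-CoA plus 12.5 uM BHQ-2-ybbR (50 mM Hepes pH 7.6, 10 mM MgCl2). Rate came from the fluorescence difference over 30 min, ex 525/em 598 nm.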
Menin MLL FP FL: displaces fluorescein MLL peptide from human menin; FP activity change, % at 61.4 µM; Fluorescence polarization, fluorescein-MLL peptide displacement from menin; AID 1766; 290,000 tested, under 10 active; inconclusive = falling polarisation curve, or a change in total fluorescence; inactive = total fluorescence flat and polarisation flat or rising; no compound was filed as active; the % refers to the polarisation; negative = inhibition;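 further: % of control where 0% means no effect; inhibitors lower the polarisation; unlabelled MLL peptide was the positive control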
* marks the source's active call; other numbers are inactive results; ? = inconclusive; · = not tested or not shown; [ ] = remark or other dose.

SMILES | gsp agonist | TRPV1 potentiator | gsp antag | ClpP mod | CtBP-E1A inh | Sfp inh | Menin MLL FP FL
Cc1noc(C)c1COc1ncnc2ccccc12 | ? | -9 | 6% | · | -12 | 28% | -3.2
COC(=O)CNC(=O)c1c(-c2c(Cl)cccc2Cl)noc1C | 29% | 0 | 9% | 0.0% | 4 | 10% | 0.1
COc1oc(-c2ccccc2C)nc1C(F)(F)F | -1% | 2 | -5% | -9.6% | -1 | 11% | -0.1
CCN1C(=O)C(CC(=O)Nc2cc(C)ccc2C)SC1=Nc1ccc(S(N)(=O)=O)cc1 (stereo not given) | 3% | 13 | -7% | 0.7% | 0 | -3% | 1.9
O=C(NCc1ccccc1)c1ccc(N2CCC3(CC2)CC(c2ccc(Cl)cc2)=NO3)c([N+](=O)[O-])c1 | · | -2 | -3% | -0.9% | -26 | 19% | 6.0
Cc1ccc(NC(=O)CSc2ncn[nH]2)cc1 | -4%[15.4 µM] | 0 | -6% | · | -10 | 2% | -5.9
CCN(Cc1ccncc1)C(=O)c1ccc(C)c(S(=O)(=O)N2CCCCC2)c1 | 0% | · | -5% | 2.0% | 8 | · | ·
NC(=O)c1oc2ccccc2c1NC(=O)C1CCCCC1 | ? | -14 | -4% | ? | 2 | 16% | -1.7
CN(Cc1cn[nH]c1-c1ccc(-c2ccccc2)cc1)CC1CCOCC1 | 15% | -1 | 5% | -5.0% | -7 | 11% | -2.0
Fc1cccc(Cl)c1/C=N/Nc1c(Cl)cncc1Cl | 2% | 13 | 6% | 1.7% | -3 | -6% | 1.5
CC1=C(C(=O)NC2CCCCC2C)C2(CCC(C)CC2)OC1=O (stereo not given) | 9% | 4 | 6% | -0.3% | 2 | 15% | 1.0
CCOc1ccc(S(=O)(=O)Nc2ccc3c(c2)n(C)c(=O)n3C)cc1 | -20% | -8 | -3% | · | 0 | 7% | 4.8
O=C(CSc1nc2ccccc2s1)N/N=C/c1ccc(C(=O)O)cc1 | 23% | 7 | 5% | -1.8% | · | 11% | 5.1
CCOc1ccccc1CNCCOC | -8%[15.4 µM] | -1 | 9% | · | 2 | 24% | -0.6
O=C(Nc1nnc(SCc2ccccc2)s1)c1cccc([N+](=O)[O-])c1 | -72%[inhibitor] | -4 | -10% | -2.6% | -11 | 7% | 6.8
CCc1ccc(CN(C)CC(=O)Nc2ccc(S(=O)(=O)N3CCOCC3)cc2)cc1 | -34%[inhibitor] | -28 | -9% | 1.9% | 0 | · | ·
CC1CCCN(c2ccc(C(=O)NCc3ccc4c(c3)OCO4)cc2[N+](=O)[O-])C1 (stereo not given) | ? | -3 | -12% | -0.2% | -19 | 3% | 0.2
C/C(CC(=O)Nc1ccc(F)cc1F)=N\NC(=O)C(=O)N1CCCCC1 | · | -24 | · | · | · | 10% | -6.2
O=C(CSc1ccc(-c2ccco2)nn1)N1CCCCC1 | -12%[15.4 µM] | 14 | 0% | 0.4% | 6 | ? | 0.4
OC1CN=C2C=CC=CN2C1 (stereo not given) | -7% | -30 | 0% | ? | 6 | 8% | 0.9
CCOc1ccc(NC(=O)C2CCN(C(=O)NC3CCCCC3)CC2)cc1 | 7% | -9 | 10% | 1.7% | 16 | 8% | -0.9
O=C(c1cccc(C(F)(F)F)c1)N1CCC2(CC1)NCCc1[nH]cnc12 | 9% | 7 | 21% | 0.1% | · | 9% | ·
CCOC(=O)Cn1nnc(-c2ccc([N+](=O)[O-])cc2)n1 | -16%[15.4 µM] | 15 | 6% | -3.4% | 10 | 6% | -0.6
Cc1cc(Cl)c2oc(C(=O)N(CCO)Cc3ccccc3)c(C)c2c1 | -18% | -24 | -17% | · | -12 | -2% | 3.2
O=C(NCCN1CCNC1=O)C1CCC(=O)N(Cc2cccc(C(F)(F)F)c2)C1 (stereo not given) | 17% | -3 | 8% | -1.7% | -9 | 4% | -3.8
N#Cc1c(-c2ccc(F)cc2)cc(-c2ccccc2)nc1SCC(=O)NCC(=O)O | 9% | · | 4% | -17% | · | 2.2µM* | 5.7
CN(C)CCNC(=O)C(c1ccccc1)c1ccccc1 | -13% | -5 | 11% | 1.1% | · | 7% | 1.7
CC1CCN(C(=O)CSc2nnc(Cc3ccccc3)o2)CC1 | 11% | -9 | 3% | -0.7% | 7 | 7% | 1.3
CC1(c2ccccc2)NC(=O)N(CC(=O)Nc2ccc(S(=O)(=O)Nc3ncccn3)cc2)C1=O (stereo not given) | 4% | 6 | 12% | -1.3% | -25 | · | ·
O=C(O)CCc1nc2cccnc2n1Cc1ccccc1 | 21% | 11 | 2% | -1.5% | 1 | 24% | 3.4
O=C(CN1C(=O)NC2(CCCC2)C1=O)Nc1ccccc1N1CCCC1 | -12% | 4 | 0% | -1.5% | 1 | -2% | ·
CCCNC(=O)CSC1=N/C(=C/c2ccc(F)cc2)C(=O)N1CC | 7% | -26 | -5% | 0.7% | 7 | 7% | 1.2
CC(C)CN1C(=O)c2ccc(C(=O)NCc3ccc4c(c3)OCO4)cc2C1=O | -49%[inhibitor] | -14 | -10% | 10% | 5 | 6% | 0.6
O=S(=O)(c1cc(O)ccc1O)c1cccc2c(S(=O)(=O)c3cc(O)ccc3O)cccc12 | · | -4 | -12% | 0.2% | -16 | · | ·
Cc1nnc(NC(=O)c2ccc(S(=O)(=O)C(F)F)cc2)s1 | -56%[inhibitor] | 18 | -24% | 0.6% | 7 | 23% | 2.8
Cc1ccc(S(=O)(=O)CCC(=O)N(CCN2CCOCC2)c2nc3ccccc3s2)cc1 | -6%[15.4 µM] | -1 | 1% | -0.4% | 8 | · | ·
Cc1cc(C(=O)N2CCN(S(=O)(=O)c3ccccc3)CC2)c(C)o1 | -1%[15.4 µM] | -6 | -7% | -2.7% | 11 | 2% | ·
COc1cccc(/C=C/C(=O)OCC(=O)Nc2ccc3[nH]c(=O)[nH]c3c2)c1OC | -45%[inhibitor] | -5 | -4% | -1.9% | -12 | · | ·
COc1cccc(CN(C)C(=O)COc2cccc3c2OC(C)(C)C3)c1OC | 1% | · | -3% | -2.3% | -23 | · | ·
Cc1ccc(Cn2nnc3c(=O)n(Cc4cc(C)ccc4C)cnc32)cc1 | -28% | ? | -2% | -1.2% | 4 | 16% | 5.0
CCOC(=O)c1cc(-c2ccccc2)n(CC(=O)Nc2ccc(OCC)cc2)c1C | 4% | 11 | -3% | -1.2% | 1 | -1% | 1.3
CC(CCCN1CCCC1)Nc1ccnc2cc(Cl)ccc12 (stereo not given) | 0% | · | 3% | · | -13 | · | ·
Cc1cccc(C(=O)Nc2cccc(Br)c2)c1[N+](=O)[O-] | -22% | 1 | -13% | -4.9% | · | 8% | -0.9
Cc1ccc(Cl)cc1N(Cc1ccc(C(=O)NCc2cccnc2)cc1)S(=O)(=O)c1ccccc1 | -64%[inhibitor] | 6 | 14% | -1.1% | 7 | -2% | 2.5
COc1ccc(Cn2c(=O)[nH]c3cc(C(=O)N4CCN(c5ccccc5OC)CC4)ccc3c2=O)cc1 | 17%[15.4 µM] | 2 | ? | 95% | 13 | 5% | 3.1
COc1cccc2cc(C(=O)N(Cc3cccs3)CC3CCCO3)c(=O)oc12 (stereo not given) | -21% | 3 | -3% | -11% | -15 | 4% | -5.2
CC(=NNS(=O)(=O)c1cccc([N+](=O)[O-])c1)c1ccc(-n2ccnc2)cc1 | 18% | · | -19% | 0.5% | 8 | · | ·
CCc1cccc(NC(=O)C2CCN(S(=O)(=O)c3c(C)noc3C)CC2)c1 | -4% | -14 | -4% | · | 2 | 5% | -1.8
COc1ccc(OC)c(NC(=O)CCS(=O)(=O)c2cc3c(cc2C)NC(=O)CO3)c1 | ? | 2 | 3% | 2.2% | 0 | 3% | -3.1
O=C(O)CSCC(=O)N1CCN(S(=O)(=O)c2cc(Cl)cc(Cl)c2)CC1 | -1% | -16 | 9% | · | 8 | 7% | 1.2
O=C(Oc1ccccc1)n1c(=S)oc2ccccc21 | 22% | -4 | -1% | -29% | 13 | -7% | ·
COc1ccc(NS(=O)(=O)c2cccc(C(=O)OCC(=O)NC3CC3)c2)cc1 | -25% | -7 | -9% | -2.2% | 4 | 10% | ·
Cc1c(CCC(=O)NCCCn2ccnc2)c(=O)oc2c(C)c3oc4c(c3cc12)CCCC4 | · | -10 | -13% | -21% | -26 | 3% | -1.6
O=C(CSc1nc2ccccc2o1)NCc1ccco1 | -4% | -12 | 12% | -0.2% | 5 | 7% | 5.2
CNC(=O)C1CCN(S(=O)(=O)c2c(C)noc2/C=C/N(C)C)CC1 | ? | -1 | 4% | 0.7% | 3 | 11% | -1.1
Cc1ccccc1N1CCN(C2CCCN(C(=O)c3csc(C(C)C)n3)C2)CC1 (stereo not given) | 43% | -18 | -19% | -1.0% | -1 | 7% | 3.6

Structures listed so far that contain a Cl atom (seven):
SMILES | gsp agonist | TRPV1 potentiator | gsp antag | ClpP mod | CtBP-E1A inh | Sfp inh | Menin MLL FP FL
COC(=O)CNC(=O)c1c(-c2c(Cl)cccc2Cl)noc1C | 29% | 0 | 9% | 0.0% | 4 | 10% | 0.1
O=C(NCc1ccccc1)c1ccc(N2CCC3(CC2)CC(c2ccc(Cl)cc2)=NO3)c([N+](=O)[O-])c1 | · | -2 | -3% | -0.9% | -26 | 19% | 6.0
Fc1cccc(Cl)c1/C=N/Nc1c(Cl)cncc1Cl | 2% | 13 | 6% | 1.7% | -3 | -6% | 1.5
Cc1cc(Cl)c2oc(C(=O)N(CCO)Cc3ccccc3)c(C)c2c1 | -18% | -24 | -17% | · | -12 | -2% | 3.2
CC(CCCN1CCCC1)Nc1ccnc2cc(Cl)ccc12 (stereo not given) | 0% | · | 3% | · | -13 | · | ·
Cc1ccc(Cl)cc1N(Cc1ccc(C(=O)NCc2cccnc2)cc1)S(=O)(=O)c1ccccc1 | -64%[inhibitor] | 6 | 14% | -1.1% | 7 | -2% | 2.5
O=C(O)CSCC(=O)N1CCN(S(=O)(=O)c2cc(Cl)cc(Cl)c2)CC1 | -1% | -16 | 9% | · | 8 | 7% | 1.2
